YjeE inh – YjeE (TsaE) inhibition, E. coli; P0AF67; purified YjeE, fluorescence polarisation of a bound ADP probe; Potency, µM; 0.05% of 71,000 active; AID 605; active = well fitted falling curve; inconclusive = weaker or top-dose-only fall, or a rising curve; inactive = flat or poorly fitted curve;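 further: top concentration of the series not given in the record; excess ADP was the control for the full effect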
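Fluorescence polarization of a BODIPY Texas Red–ADP probe (2 uM) bound to purified YjeE (10 uM) was read after 15 min room-temperature incubation with compounds. Loss of polarization marks inhibitors; ADP serves as titrated control.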
PK Bst – pyruvate kinase (B. stearothermophilus) modulation; partly purified Bacillus stearothermophilus pyruvate kinase, luminescence ATP production; ribose 5-phosphate activator present at AC10; 1.2% of 51,000 active; AID 361; Potency, µM; in the data active means potency below about 11 µM; inconclusive means mostly about 12 µM to 25 µM; inactive means weaker than that;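 the screen sought inhibitors and activators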;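 further: potency means the concentration at half of the fitted maximal effect; scaled between full activation by ribose 5 phosphate and full inhibition by luteolin; about four in five hits inhibit and the cells do not say which; series up to 57 µM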
Numbers without * were called inactive; i = inactive; ? = inconclusive; . = not tested or not shown.

Sample of the layout:
SMILES	YjeE inh	PK Bst
O=C1CN(C(=O)c2ccc(Br)o2)C(c2ccc(F)cc2)c2cc(F)ccc2N1 (centres undefined)	i	>57
O=C(Nc1ccc(Oc2ccc(Cl)cc2)cc1)c1ncn[nH]1	i	>57
CC1CCCCN1CCNC(=O)CN1C(=O)COc2ccccc21 (centres undefined)	i	>57
COc1cc(-c2c(C#N)c(N)nc(SCc3ccncc3)c2C#N)cc(OC)c1OC	i	>57
Cc1noc(C(=O)Nc2sc3c(c2C#N)CCC3)c1Cl	i	.

Results, repeating the preview:
SMILES	YjeE inh	PK Bst
O=C1CN(C(=O)c2ccc(Br)o2)C(c2ccc(F)cc2)c2cc(F)ccc2N1 (centres undefined)	i	>57
O=C(Nc1ccc(Oc2ccc(Cl)cc2)cc1)c1ncn[nH]1	i	>57
CC1CCCCN1CCNC(=O)CN1C(=O)COc2ccccc21 (centres undefined)	i	>57
COc1cc(-c2c(C#N)c(N)nc(SCc3ccncc3)c2C#N)cc(OC)c1OC	i	>57
Cc1noc(C(=O)Nc2sc3c(c2C#N)CCC3)c1Cl	i	.
O=C(Cn1c(=O)oc2cc(S(=O)(=O)N3CCCC3)ccc21)N1CCN(c2ccccn2)CC1	i	.
CN(C)c1ncc2nc(-c3cc(F)cc(F)c3)c(=O)n(Cc3cccs3)c2n1	i	.
Nc1ccc2c(c1)N1CCN=C1S2	.	>26
N#CCCn1c(=O)c(-c2ccccc2)nc2cnc(Oc3ccccc3)nc21	i	.
Cc1nc2n(n1)CC(O)CS2 (centres undefined)	i	>57
O=C(Nc1ccccc1-c1nc2ccccc2o1)c1ccc2c(c1)OCCO2	i	>57
O=C(C1CCCO1)N1CCN(c2ncccn2)CC1 (centres undefined)	i	>57
COCCn1c(SCC(=O)Nc2ccc(S(=O)(=O)N3CCOCC3)cc2)nc2ccccc21	i	>57
Cc1ccc(-n2nnnc2SCC(=O)NC(=O)Nc2ccc3c(c2)OCCO3)cc1	i	>57
COc1ccccc1-c1cc(C(=O)Nc2ccccc2SC)no1	i	>57
CC1CCCN(C(=O)C23CCC(C)(C(=O)C2)C3(C)C)C1 (centres undefined)	i	.
Cn1c2ccccc2c2c(C(=O)NCC3CCCO3)cn(C3CCCC3)c(=O)c21 (centres undefined)	i	.
O=C(NC1CCCCC1)N1CCSC1=Nc1ccccc1	.	>26
CN1CC[C@@]2(CCCN(C(=O)c3cccn3C)C2)C1	i	.
COc1ccc(N2C(=O)CC(c3ccc(OC(C)C)cc3)C2=O)cc1 (centres undefined)	i	.
CCOC(=O)CSC1=C(C#N)C(c2ccccc2F)C(C(C)=O)=C(C)N1 (centres undefined)	i	>57
CC(CCc1ccco1)NC(=O)CSc1cc(=O)n(C)c2ccccc12 (centres undefined)	i	>57
COc1ccc(NC(=O)Cn2nnc(-c3ccccc3NC(=O)C3CC3)n2)cc1	i	>57
CCc1nc2oc3ccccc3c(=O)c2c(=O)n1-c1ccccc1	i	>57
COc1ccccc1NC(=O)C1CCCCC1	i	>57
Cn1nnnc1SCC(=O)NCc1cccc(C(=O)O)c1	i	>57
c1ccc2c(c1)oc1c(NCc3ccc4c(c3)OCO4)ncnc12	i	>57
CCn1c(SCC(=O)N2CCCc3ccccc32)nc2c(c1=O)SC(C)C2 (centres undefined)	i	.
FC(F)(F)COc1nc(N2CCCCC2)nc(N2CCNCC2)n1	i	.
CC(=O)Nc1nc2n(n1)C(c1ccc(F)cc1)C=C(c1ccccc1)N2 (centres undefined)	i	.
Cc1cc(C)n(-c2ccc(-n3ccnc3)nn2)n1	i	>57
CCc1ccc(OCC(=O)OC2CCS(=O)(=O)C2)cc1 (centres undefined)	i	>57
Cn1c(N2CCCC2)nc2c1c(=O)n(Cc1ccc(F)cc1)c(=O)n2C	i	>57
CC1(C)Cc2nc(N)c(C(=O)NCCO)cc2CO1	.	>26
COc1ccc(Cn2c(C)ccc2C)cc1	i	.
CCCCOC(=O)Nc1ccc(N2CCCCC2)cc1	i	.
COc1ccc(C(=S)N2CCN(C)CC2)cc1Br	i	.
CC(C)=C[C@H]1[C@@H](COC(=O)c2cc3c(cc2Cl)OCO3)C1(C)C	i	.
CCCn1c(SCC(=O)NC(=O)NCc2ccco2)n[nH]c1=O	i	>57
COc1cccc(-c2cc(C(=O)Nc3c(C)nn(Cc4ccccc4C)c3C)no2)c1	i	>57
CCC(C)OC(=O)C1=C(C)NC2=C(C(=O)C(C(=O)OC)C(C)C2)C1c1ccc(N(C)C)cc1 (centres undefined)	i	>57
NS(=O)(=O)c1cccc2c1c([N+](=O)[O-])cc1nc(O)c(O)nc12	i	.
CCOc1ccc(OCC)c(NC(=O)CC2Oc3ccc(C)cc3NC2=O)c1 (centres undefined)	i	.
c1coc(C2Nc3ccccc3-c3nc4ccccc4n32)c1 (centres undefined)	i	.
CN(CCc1ccc(Cl)c(Cl)c1)C[C@@H](O)COc1ccc(NS(C)(=O)=O)cc1	i	.
C=CCn1c(SC/C=C/c2ccccc2)nnc1-c1sc(N)nc1C	i	>57
CCN(CC)C(=O)c1sc2nc(-c3ccncc3)[nH]c(=O)c2c1C	i	>57
CN(C)Cc1ccc(O)c(CN(C)C)n1	i	.
COCCCn1cnc2c(c1=O)c1nc3ccccc3nc1n2-c1ccc(C)cc1	i	>57
CCN(CC)CCSc1nc(O)c(-c2ccccc2)c(=O)[nH]1	i	>57
Cc1ccc2nc(SCC(=O)Nc3c(C)n(C)n(-c4ccccc4)c3=O)[nH]c2c1	i	>57
COC(=O)Cc1cc(=O)n(-c2ccccc2)[nH]1	i	>57
O=C(NCCC1=CCCCC1)C1CCN(S(=O)(=O)N2CCOCC2)CC1	i	>57
CCOc1ccc(C)cc1S(=O)(=O)n1ccnc1	i	>57
Cn1c(=O)[nH]c(=O)c2c1nc(Br)n2Cc1ccccc1Cl	i	>57
C=CCN(C(=O)CCC(=O)O)C1CC(=O)N(c2ccc(OCCC)cc2)C1=O (centres undefined)	.	>26
Cc1c(O)ccc2c3c(c(=O)oc12)CCC(C)C3 (centres undefined)	i	i
Cc1ccc(CNS(=O)(=O)c2ccc(C(C)(C)C)cc2)n1C	i	>57
CCn1cc(C(=O)OCC(=O)Nc2c(C)n(C)n(-c3ccccc3)c2=O)c(=O)c2ccc(C)nc21	i	.
O=C(c1ccco1)N1CCC2(CCN(Cc3nccs3)CC2)CC1	i	.

Following part
SMILES	YjeE inh	PK Bst
O=S(=O)(NCc1ccco1)c1cccc2cccnc12	i	?
Cc1ccc(-c2nc(CS(=O)(=O)CC(=O)N3CCCCCC3)c(C)o2)cc1	i	.
COC(=O)c1c(C)oc2ccc(NS(=O)(=O)c3cc(OC)ccc3OC)cc12	i	>57
COc1ccc(OCC(=O)NC2CC(C)(C)NC(C)(C)C2)cc1	i	.
O=C(Cc1ccccc1)NCCSCc1ccco1	i	.
C[N+](C)(N)Cc1nc(-c2ccc(Cl)cc2)no1	i	.
Cc1conc1NC(c1cccs1)c1ccc2cccnc2c1O (centres undefined)	i	>57
COCCNC(=O)c1ccccc1-c1nc(-c2ccccc2OC)no1	i	>57
Fc1ccccc1N1CCN(c2ncnc3[nH]ncc23)CC1	i	.
O=C(CSCc1n[nH]c(=O)[nH]1)NCCOc1cccc(Oc2ccccc2)c1	i	>57
CC(Oc1ccc(C(=O)NC2CCCCC2)cc1)C(=O)O (centres undefined)	i	>57
CN1CCN(c2ncc3nc(-c4ccccc4)c(=O)n(CCC#N)c3n2)CC1	i	.

Compound profiles, as listed above. Screens in order: YjeE inh	PK Bst
Fc1ccccc1N1CCN(c2ncnc3[nH]ncc23)CC1 in the list: i	.
O=C(CSCc1n[nH]c(=O)[nH]1)NCCOc1cccc(Oc2ccccc2)c1 in the list: i	>57
CC(Oc1ccc(C(=O)NC2CCCCC2)cc1)C(=O)O (centres undefined) in the list: i	>57
COCCNC(=O)c1ccccc1-c1nc(-c2ccccc2OC)no1 in the list: i	>57
Cc1ccc(-c2nc(CS(=O)(=O)CC(=O)N3CCCCCC3)c(C)o2)cc1 in the list: i	.

Additional compounds
SMILES	YjeE inh	PK Bst
N#Cc1ccc(CN2CC[C@@]3(CCCN(C(=O)c4ccco4)C3)C2)cc1	i	.
O=C1c2ccccc2C(O)N1Cc1ccccc1Cl (centres undefined)	i	.
Cc1ccc(Cn2c(Sc3ncccn3)nc3c2c(=O)[nH]c(=O)n3C)cc1	i	>57
CS(=O)(=O)N1CCCC(c2nc(-c3ccc(S(=O)(=O)NCc4ccccc4)cc3)no2)C1 (centres undefined)	i	>57
CCOC(=O)c1cc(-c2ccccc2)sc1NC(=O)CSc1nnnn1C	i	>57
CC(C)(C)c1ccc(C(O)CCCN2CCC(C(O)(c3ccccc3)c3ccccc3)CC2)cc1 (centres undefined)	.	>26
CC1CN(Cc2nc3c(c(=O)[nH]c(=O)n3C)n2CCCc2ccccc2)CC(C)O1 (centres undefined)	i	>57
CCOC(=O)c1cccc(NC(=O)CSc2nnc(COc3ccccc3)n2CC)c1	i	>57
COc1ccc(N2CCN(c3nc(=S)n(-c4ccccc4)c(C)c3C(C)=O)CC2)cc1	i	>57
CCCCCCCCCCCCCCCCCC(=O)O[C@H](CC(=O)O)C[N+](C)(C)C	i	.
COc1ccc2nc(N3CCCC3)[nH]c2c1	i	>11
CCOC(=O)N1CCC(N(CCOC)C(=O)Nc2ccc(Cl)c(Cl)c2)CC1	i	>57
CCn1c(NC(=O)c2cccs2)c(-c2cccs2)c(=O)c2ccccc21	i	>57
Cc1cc2nnc(SC(C)C#N)n2c2ccccc12 (centres undefined)	i	>57
O=C(CCCCC(=O)N1CCN(c2ccccc2)CC1)N1CCN(c2ccccc2)CC1	i	.
Cc1cc(C)nc(SCC(=O)Nc2cc(C)on2)n1	i	.
COc1ccc(NC(=O)C2CCN(S(=O)(=O)c3ccc(OC)c(OC)c3)CC2)c(OC)c1	i	.
CCc1ccccc1N1C(=O)C2CC(C)=C(C)CC2C1=O (centres undefined)	i	.
COc1ccc(C)cc1NC(=O)c1ccc(N(C)S(C)(=O)=O)cc1	i	>57
COC(=O)c1sc(NC(=O)COc2ccccc2)nc1C	i	.
CCOc1ccc(-c2cc(C(=O)NCCCN3CCN(CC)CC3)c3ccccc3n2)cc1	i	10*
Cc1cc2oc(=O)cc(CN3CCc4ccccc43)c2cc1Cl	i	>57
CCOc1cc(NC(=O)C2CC2)c(OCC)cc1NC(=O)c1cccnc1	i	>57
O=C(Nc1ccc(N2CCCC2=O)cc1)c1cccc(F)c1	i	.
CNC(=O)[C@@]1(Cc2ccccc2)C=C[C@@H](C)N1C(C)=O	i	.
O=C(CN1C(=O)C2CCCN2C(=O)c2ccccc21)Nc1ccccc1-n1cccc1 (centres undefined)	i	>57
CCNc1oc(COc2cccc(C)c2)nc1C#N	i	>57
COc1ccc(C2CC(C(F)(F)F)n3nc(C(=O)NCCN4CCOCC4)cc3N2)cc1 (centres undefined)	i	>57
c1coc(CNc2nc(-c3ccncc3)cs2)c1	i	.
CCc1noc(C)c1C(=O)N1CCOCC1	i	>57
Cc1cccc(CC(=O)Nc2cc(=O)n(C)c(=O)n2C)c1	i	.
COCCn1nnnc1CN(Cc1cc2cc(OC)c(OC)cc2[nH]c1=O)C1CCCC1	i	>57
CCCn1c(C)nc2c(NCCO)nc(C)nc21	i	.
Cc1cc(C)c(C#N)c(SCC(=O)Nc2ccccc2C(N)=O)n1	i	>57
CCOC(=O)C1C(=O)Nc2nc(C)nn2C1c1ccccc1 (centres undefined)	i	>57
O=C(NCc1cccs1)C1CCCN(S(=O)(=O)c2cnc[nH]2)C1 (centres undefined)	i	.
Cc1ccc2c(c1)c(C)cc(=O)n2CCC(=O)O	i	>57
CCCC(=O)N1CCc2[nH]c3ccccc3c2C1	.	>26
CN1CCN(c2ncncc2-c2cccnc2)CC1	i	.
CCOc1ccc(-c2nc(C#N)c(N3CCCCCC3)o2)cc1	i	.
Cc1[nH]c2ccccc2c1-c1cc(-c2cc(-c3c(C)[nH]c4ccccc34)nc(N)n2)nc(N)n1	i	.
COC(=O)c1ccc(C(NC(=O)OCc2ccccc2)/C(=C/[C@@H](C)C(=O)NCc2cc(C)on2)c2cccnc2)cc1 (some centres undefined)	i	.
CCOCC(=O)Nc1nnc(COc2ccc(Cl)cc2)s1	i	>57
COc1ccccc1-c1nc(N(C)Cc2ccco2)c2ccccc2n1	i	.
Clc1ccc(CSc2ncnc3c2ncn3[C@@H]2CCCCO2)cc1	i	.
CC1CCCN(c2nc3c(c(=O)[nH]c(=O)n3C)n2CCSc2ncccn2)C1 (centres undefined)	i	.
Cn1cc(-c2nc3cnc(Oc4ccccc4)nc3n(CCC#N)c2=O)c2ccccc21	i	.
COc1ccc(-c2cnnn2-c2ccc(NC(=O)c3ccco3)cc2)cc1OC	i	>57
COc1cc(C(=O)Nc2cc(Cl)ccc2C)c(-n2cnnn2)cc1OC	i	>57
COc1ccc(C2C=C(c3ccc(C)c(C)c3)Nc3ncnn32)c(OC)c1OC (centres undefined)	i	.
Cc1c(C(=O)NCc2ccc3c(c2)OCO3)oc2ccccc12	i	.
CCCN(CCC)C(=O)Cn1ccc(=N)c2ccccc21	i	>57
CS(=O)(=O)N(CC(=O)NCc1ccc2c(c1)OCO2)c1ccc(Cl)cc1	i	>57
O=C(CCSc1nc(-c2ccco2)cc(C(F)(F)F)n1)NCc1ccccn1	i	>57
Cc1cc(S(=O)(=O)NC2CCCCC2)c(C)s1	i	>57
CCOC(=O)Cc1csc(NC(=O)COc2ccccc2)n1	i	>57

Screening data from PubChem.

This is a subset; rates above refer to the full screens.
